Source: PubChem BioAssay
UUG fidelity = yeast start codon fidelity modulation; S. cerevisiae UUG-firefly luciferase reporter, luminescence/redox ratio; activity score, % at 18.7 µM; 0.13% of 350,000 active;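 active = replicate mean at a twofold rise or more, about +100% in these data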;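 also: firefly luciferase made from a UUG start codon reports start codon fidelity; reporter light over untreated wells divided by growth signal over untreated wells; some hits fall short of that in this replicate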
CSC inhib = blocks cancer stem cells | cancer stem cell-like cells viability, luminescence | inhibition, % at 7.5 µM | 1.1% of 300,000 active | AID 2717;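 active = mean at 75% or more and at least half the replicates too; inconclusive = mean and replicates disagree; tested in HMLE shEcad cells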;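 also: 0% = median of negative and 100% = median of positive control wells; the first replicate is given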
PABP polyA inh = PABP-poly(A) binding inhibition; P11940; 1% of 290,000 active; AID 2014; inhibition, % at 35 µM; PABP-poly(A) RNA binding, fluorescence polarization;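 active = 50% or more with normal probe brightness, or confirmed in later tests; inconclusive = above 50% with abnormal brightness, or retests that disagree; inactive = below 50% or failed in later tests; about a fifth of its hits are not listed in these tables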;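 also: calls also rest on retests at 20 µM and on dose response follow-up; controls were probe without protein and protein plus probe with vehicle; some compounds called inactive have numbers as strong as hits; many hits fall short of the cut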
Target sequence (P11940 whole entry, looked up): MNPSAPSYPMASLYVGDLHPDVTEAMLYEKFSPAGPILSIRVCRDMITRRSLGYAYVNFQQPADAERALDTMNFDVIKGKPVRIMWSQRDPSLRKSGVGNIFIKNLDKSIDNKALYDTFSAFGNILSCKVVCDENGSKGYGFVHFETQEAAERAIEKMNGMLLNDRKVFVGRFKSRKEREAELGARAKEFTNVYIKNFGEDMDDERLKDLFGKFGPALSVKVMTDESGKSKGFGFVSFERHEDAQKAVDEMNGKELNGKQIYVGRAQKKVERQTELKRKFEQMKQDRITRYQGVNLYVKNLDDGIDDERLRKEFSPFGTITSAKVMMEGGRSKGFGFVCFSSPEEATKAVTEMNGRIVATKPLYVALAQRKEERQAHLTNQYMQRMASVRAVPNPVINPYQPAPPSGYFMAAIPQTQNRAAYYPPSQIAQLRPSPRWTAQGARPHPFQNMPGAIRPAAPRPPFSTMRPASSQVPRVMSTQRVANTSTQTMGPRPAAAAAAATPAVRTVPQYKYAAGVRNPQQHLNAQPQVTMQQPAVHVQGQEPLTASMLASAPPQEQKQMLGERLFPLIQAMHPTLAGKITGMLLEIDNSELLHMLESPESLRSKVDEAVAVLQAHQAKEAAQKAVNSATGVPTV
MT1-MMP act inh = inhibitors of human MT1-MMP activation. P50281. HT1080 RFP-PRO-GFP cells, GFP/RFP ratio fluorescence, overnight; percent of plate control window, DMSO zero. GFP/RFP ratio change, % at 20 µM. 0.061% of 360,000 active. AID 651647;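 active = GFP/RFP ratio change of at least 30% with cell ATP level not reduced by more than half and red fluorescence within 50% of control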; also: strong numbers were not always called active
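Assay system: RFP-PRO-GFP reporter HT1080 cells; read-out basis: GFP/RFP fluorescence ratio; benchmarks: DMSO wells and RFP-L50D-GFP cells; doses: 20 µM single dose, 1% DMSO; schedule: overnight cell settling, then overnight compound exposure, 37 °C, 5% CO2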
Env fusion inh = inhibitors of HIV Env-mediated cell fusion; HeLa-JRFL Env/CEM21 cell fusion, luciferase; inhibition, % at 12.3 µM; 1.1% of 360,000 active;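 active = mean replicate inhibition score of at least 50 and every replicate individually at or above 50; inconclusive = only one of the two criteria met; inactive = mean below 50 and not all replicates reaching 50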;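 also: 0% = plate neutral controls and 100% = maraviroc near 300 nM; one replicate is shown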
eIF4H inh = inhibitors of RNA binding by human eIF4H | eIF4H fluorescence polarization binding assay | inhibition, % at 35 µM | 0.94% of 290,000 active;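 active = 50% or more with normal probe brightness, or confirmed in later tests; inconclusive = above 50% with abnormal brightness, or retests that disagree; inactive = below 50% or failed in later tests; about a fifth of its hits are not listed in these tables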;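 also: calls also rest on retests at 20 µM and on dose response follow-up; 0% = protein and probe with vehicle and 100% = probe without protein; strong numbers were not always called active; many hits fall short of the cut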
Rce1 inhib = blocks yeast Ras-converting enzyme. yeast membranes, quenched prenylated peptide cleavage fluorescence. calls only. AID 2563. 0.27% of 290,000 active;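 active = fall in fluorescence gain of 50% or more versus controls, with final raw signal at or below 3038400; inconclusive = same 50% fall but final raw signal above 3038400; inactive = fall in fluorescence gain under 50%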;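 also: plate controls were neutral control wells for no effect and wells lacking membranes for full effect; tested at 10 µM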
Target sequence (Q03530 whole entry, looked up): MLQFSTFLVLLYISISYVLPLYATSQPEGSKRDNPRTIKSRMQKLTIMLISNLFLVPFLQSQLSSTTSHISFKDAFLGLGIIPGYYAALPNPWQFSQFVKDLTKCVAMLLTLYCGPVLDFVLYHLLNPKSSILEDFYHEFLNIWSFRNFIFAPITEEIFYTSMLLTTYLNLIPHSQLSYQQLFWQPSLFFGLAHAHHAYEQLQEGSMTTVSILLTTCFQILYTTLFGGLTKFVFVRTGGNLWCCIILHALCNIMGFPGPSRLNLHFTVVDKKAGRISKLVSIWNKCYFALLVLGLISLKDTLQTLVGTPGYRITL
eIF4H inh retest = also measured in eIF4H inh; calls as there; inhibition, %; compound at 20 µM; confirmation average;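 mean of two retest wells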
PABP polyA inh retest = second read-out of PABP polyA inh, no call of its own (marks repeat the call); inhibition, %; compound at 20 µM; confirmation repeats;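 mean of two retest wells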
MT1-MMP act inh RFP = further read-out of MT1-MMP act inh, marked with its call; RFP signal change, %; measured here: RFP expression control read;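 0 = vehicle wells; hits needed this value within 50% of zero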
* hit, by the source's call; i = inactive; ? = inconclusive; . = not tested or not shown; [ ] = another dose, or the depositor's remark. These rows are one share of the data, so the mix of outcomes need not match the whole.

Start of the data: the first 4 entries, to show the layout:
SMILES	UUG fidelity	CSC inhib	PABP polyA inh	MT1-MMP act inh	MT1-MMP act inh RFP	Env fusion inh	eIF4H inh	Rce1 inhib	others
O=C(CCc1nnc(C2CCCCC2)o1)N1CCN(Cc2ccccc2)CC1	-2	-14	-9	-2	-1	-12	-4	i
CC(NCc1ccco1)C(=O)N1CCc2ccccc2C1 (stereo not given)	.	.	20	1	5	.	2	i
CCn1c(SCC(=O)NCc2ccco2)nc2c(c1=O)SC(C)C2 (stereo not given)	-7	-2	0	3	4	.	0	i
CCOC(=O)c1sc2nccc(N(C)C)c2c1N=CNOCc1c(F)cccc1Cl	.	35	0	-6	-11	.	4	i

Results, repeating the preview:
SMILES	UUG fidelity	CSC inhib	PABP polyA inh	MT1-MMP act inh	MT1-MMP act inh RFP	Env fusion inh	eIF4H inh	Rce1 inhib	others
O=C(CCc1nnc(C2CCCCC2)o1)N1CCN(Cc2ccccc2)CC1	-2	-14	-9	-2	-1	-12	-4	i
CC(NCc1ccco1)C(=O)N1CCc2ccccc2C1 (stereo not given)	.	.	20	1	5	.	2	i
CCn1c(SCC(=O)NCc2ccco2)nc2c(c1=O)SC(C)C2 (stereo not given)	-7	-2	0	3	4	.	0	i
CCOC(=O)c1sc2nccc(N(C)C)c2c1N=CNOCc1c(F)cccc1Cl	.	35	0	-6	-11	.	4	i
CCC(C)/C=C/C1=CC2=C(Cl)C(=O)C3(C)OC(=O)C(C(=O)C(C)C(C)O)C3C2=CO1 (stereo not given)	2	2	33	-3	2	.	72	i	eIF4H inh retest=-8;PABP polyA inh retest=6
COc1cc(NC(=S)NCc2cccs2)cc(OC)c1	.	.	-4	0	-1	-22	-4	i
COc1c(F)c(F)c(C(=O)Nc2ccc3oc(-c4ccncc4)nc3c2)c(F)c1F	-6	-6	9	10	6	.	-1	.
O=C(Cc1ccccc1[N+](=O)[O-])Nc1ccc(S(=O)(=O)N2CCCC2)cc1	-1	-12	-16	-4	2	-66	-9	.
CC(=O)NCCOC(=O)Nc1cccnc1	-26	-10	-2	-5	0	.	7	i
O=C(NC(=S)NCC1CCCO1)c1ccccc1[N+](=O)[O-] (stereo not given)	.	-2	5	3	5	6	-4	i
O=C(CSC1=NS(=O)(=O)c2ccccc2N1)NCc1ccc(F)cc1	.	-5	.	-1	-2	4	.	i
O=C(Nc1nc(-c2ccccc2)cs1)c1cccnc1	-12	-6	2	9	-9	.	-8	i
NS(=O)(=O)OCc1ccc(C(F)(F)F)cc1	-6	0	8	4	6	-4	-14	i
Cc1ccc(C(=O)Oc2ccc(C(=O)COC(=O)C3CC(=O)N(Cc4ccco4)C3)cc2)cc1 (stereo not given)	-8	19	6	-4	5	.	40	i
Cc1cc(N)n(-c2ccc(S(=O)(=O)N3CCOCC3)cc2[N+](=O)[O-])n1	0	1	0	1	0	-3	4	i
O=C1CC(Sc2nnc(-c3ccccc3O)o2)C(=O)N1c1ccccc1 (stereo not given)	-18	-6	-1	-1	2	.	4	i
CCC1CCCCN1CCCNC(=O)C1CCN(Cc2nc(-c3ccc(Cl)cc3)oc2C)CC1 (stereo not given)	-7	9	24	4	4	.	5	i
Cc1ccc(N(CC(=O)NCCSc2ccccn2)S(C)(=O)=O)cc1	.	-3	9	3	3	6	-1	i
COc1c2c(cc3oc(=O)ccc13)OC(C)(C)C=C2	30	-4	27	-3	-5	.	3	i
O=C(NNC(=O)c1ccccc1F)c1cccc(S(=O)(=O)N2CCc3ccccc32)c1	-12	-9	.	3	-30	.	.	.
CCc1nc2c(OCCC3CCCCC3)cccn2c1N(C=O)Cc1ccccc1	-15	.	.	-6	-7	37	.	.
COc1ccc(NC(=O)c2cc(OC)c(OC)cc2OC)c(S(=O)(=O)N2CCOCC2)c1	-6	-10	-5	7	2	.	-14	i
COc1cc2c(cc1O)C(CSC)Cc1cc3c(cc1N(C)CC2)OCO3 (stereo not given)	-23	.	.	-6	-2	11	.	.
CCc1ccc(CCC(=O)Nc2ccccc2C(=O)O)o1	-20	12	4	0	-6	-72	-14	i
CCN(C(=O)CSc1nnc(-c2ccc(OC(F)F)cc2)n1N)C1CCS(=O)(=O)C1 (stereo not given)	-8	0	.	3	-3	-7	.	i
CC(Oc1ccc(Cl)cc1Cl)C(=O)NC1=NN(c2ccccc2)C(=O)C1 (stereo not given)	-10	-9	0	7	-3	.	1	i
C[C@H]1CN([C@@H](C)CO)C(=O)CCCn2cc(nn2)CO[C@@H]1CN(C)S(=O)(=O)c1cccc(C#N)c1	1	.	.	-1	-2	5[16.7 µM]	.	.
O=C(Nc1ccc(Cl)cn1)c1cccc(S(=O)(=O)N2CCOCC2)c1	-11	-7	1	4	0	-51	3	i
COc1ccccc1OCCOCCOc1ccccc1Cl	5	5	0	0	0	-7	-6	i
CC(C)COP(=O)(OCC(C)C)C(O)c1ccc2c(c1)OCO2 (stereo not given)	-7	1	-7	1	-4	7	-9	i
Cc1[nH]c2ccc(F)cc2c1CCNC(=O)C1CCCCC1C(=O)OCC(F)(F)F (stereo not given)	-13	2	-1	3	1	-6	2	i
COC(=O)N/N=C/c1cc(C)n(-c2ccc(F)cc2)c1C	-9	-5	-11	2	4	-16	9	i
O=C(O)c1ccc(CNS(=O)(=O)c2ccc(Oc3ccccc3Cl)cc2)cc1	-11	-22	5	3	-6	6	7	i
Cc1ccc2c(COC(=O)CNC(=O)c3ccccc3)cc(=O)oc2c1	.	6	3	-3	2	.	-1	i
CCSC1=N/C(=C\c2cccc(F)c2)C(=O)S1	-13	-6	-4	0	6	.	-4	i
Cc1cc(C)n(C2CC(=O)N(c3cccc(Cl)c3)C2=O)n1 (stereo not given)	.	-11	-2	0	-3	9	5	i
Cc1noc(C)c1S(=O)(=O)N(C)C[C@H]1Oc2ccc(NS(=O)(=O)c3ccccc3)cc2C(=O)N([C@H](C)CO)C[C@@H]1C	-1	4	.	2	5	-6	.	.
O=C(CSCc1ccc([N+](=O)[O-])cc1)NN=C1CCCCCC1	-6	-1	14	0	3	.	-7	i
O=C(NCCc1ccc(Cl)cc1)c1ccc(CS(=O)Cc2ccccc2Cl)o1 (stereo not given)	-10	-3	-4	0	-9	33	0	i
O=C(Nc1cc(-c2nc3ncccc3o2)ccc1Cl)c1ccc2c(c1)OCO2	-6	-2	.	-4	-1	-7	.	.
Cc1ccc(C(=O)Nc2nnc(C)s2)o1	.	.	33	0	3	.	-4	i
COc1ccc(Cl)cc1-c1cc(C(=O)NCc2cccc(C(F)(F)F)c2)[nH]n1	2	.	.	0	-7	-4	.	.
Cc1ccc(C2C(C(=O)c3cccs3)=C(O)C(=O)N2CCN2CCOCC2)o1 (stereo not given)	-18	-11	12	3	7	-27	-5	i
Nc1ccc(C(=O)OCC(=O)NC(=O)c2ccccc2)cc1[N+](=O)[O-]	-7	-13	.	4	1	-13	.	i
CCCCn1c(N)c(N(CC(C)C)C(=O)CSc2nnc(-c3ccc(Cl)cc3)o2)c(=O)[nH]c1=O	-14	-3	.	-5	-4	.	.	i

A section from further up, as a working copy:
SMILES	UUG fidelity	CSC inhib	PABP polyA inh	MT1-MMP act inh	MT1-MMP act inh RFP	Env fusion inh	eIF4H inh	Rce1 inhib	others
O=C(Nc1cc(-c2nc3ncccc3o2)ccc1Cl)c1ccc2c(c1)OCO2	-6	-2	.	-4	-1	-7	.	.
Cc1ccc(C(=O)Nc2nnc(C)s2)o1	.	.	33	0	3	.	-4	i
COc1ccc(Cl)cc1-c1cc(C(=O)NCc2cccc(C(F)(F)F)c2)[nH]n1	2	.	.	0	-7	-4	.	.
Cc1ccc(C2C(C(=O)c3cccs3)=C(O)C(=O)N2CCN2CCOCC2)o1 (stereo not given)	-18	-11	12	3	7	-27	-5	i

(further entries)
SMILES	UUG fidelity	CSC inhib	PABP polyA inh	MT1-MMP act inh	MT1-MMP act inh RFP	Env fusion inh	eIF4H inh	Rce1 inhib	others
Nc1nccnc1C(=O)OCC(=O)Nc1cccc(S(=O)(=O)N2CCCCC2)c1	-10	-7	3	-1	3	7	0	i
O=C(O)c1cn(Cc2ccccc2)c2ccc(Cl)cc2c1=O	-6	-6	.	1	-9	-11	.	i
CC(=O)N/N=C/c1cc(C(C)C)cc(/C=N/NC(C)=O)c1O	.	18	?	-113	2	6	?	i
CCCC(=O)C1=C(O)C(C(=O)OC)C(C)(C)CC1=NC(C)C (stereo not given)	0	9	-5	1	1	.	-1	i
C=CCN(CC=C)C(=O)c1ccc(OC2CCN(Cc3ccccn3)CC2)cc1	-1	-5	-8	5	4	?	-8	i
CCOC(=O)CCc1c(C)nc2c(c(C)nn2-c2ccccc2)c1C	1	-6	-4	-1	-4	4	-13	i
Cc1ccc(-c2nnn(CCC(=O)N3CCCCC3C)n2)cc1 (stereo not given)	-4	-5	-7	0	1	.	-8	i
CCOC(=O)c1c(S(=O)(=O)Nc2ccc(C)cn2)c(C)n(C)c1C	-8	1	7	0	5	-3	-6	i
O=c1c2sc3nc(N4CCOCC4)c4c(c3c2ncn1-c1ccccc1)CCCC4	-7	.	13	-7	-8	12	0	i
COc1ccc(C(=O)NCc2nnc(SCC(=O)Nc3ccccc3OC)n2C)cc1	.	-9	-5	4	4	-26	1	i
CCc1nc(SCc2cc(Cl)ccc2OC)n[nH]1	-4	-4	3	13	3	16	-13	i
CCN(CC)S(=O)(=O)c1ccc(-c2nnc(SCC(=O)N3CCOCC3)o2)cc1	-18	-14	2	2	1	.	-7	i
CC(C)(C)SC(=O)CC1NS(=O)(=O)OC2CCCCC12 (stereo not given)	5	-8	4	-4	-10	-19	-3	i
CC1CCN(CCOc2ccc(Cl)c(Cl)c2)CC1	.	43	-1	5	6	.	3	i
Nc1ccc2c(c1)COc1ccccc1O2	11	4	-1	-1	-5	-65	-8	i
CC(C)(C)c1ccc(C(=O)/C(C#N)=C/c2cccs2)cc1	.	-5	-4	6	12	-3	-12	i
CN(C(=O)COC(=O)Cn1c(C(F)(F)F)nc2ccccc21)c1c(N)n(Cc2ccccc2)c(=O)[nH]c1=O	2	.	2	-2	1	.	4	i
COc1cc(CNc2ccc(N3CCCC3)cc2)ccc1OCc1ccccc1F	.	-3	16	1	1	.	99	.	eIF4H inh retest=-5;PABP polyA inh retest=1
Cc1cnc(CN(C)Cc2c(C(=O)N3CCCCCCC3)nc3ccc(Cl)cn23)[nH]1	-12	-10	-3	-4	2	-6	-3	i
Cc1cccc(C)c1NC(=O)c1sccc1SCc1cccc(C(F)(F)F)c1	-6	29	-4	-10	-10	.	2	i
COc1cccc2sc(NC(=O)c3ccc(S(=O)(=O)N4CCOCC4)cc3)nc12	-5	9	2	12	-2	.	1	i
O=S1(=O)c2ccc(Br)cc2N2CCC[C@@H]2CN1Cc1ccc(Cl)cc1	-14	.	.	-3	-2	23	.	.
